Rango complex inh – Rango-importin beta binding inhibition | Q14974 | Rango CFP/YFP FRET sensor + importin beta, 45 min | Potency, µM (doses to about 92.2 µM), for inactives: at the top dose inhibition of complex formation | 340,000 tested, 0.031% active; active = rising FRET ratio curve, often small or poorly fitted; inconclusive = mostly compound fluorescence or quenching in the first reads; inactive = flat curves in all reads;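 also: potency is read from the fitted curve at half-maximal effect; 0% = DMSO wells and 100% = buffer wells lacking importin beta; nearly all actives have a fitted effect of over 15% in size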
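FRET biosensor Rango (snurportin 1 IBB between N-terminal EYFP and C-terminal Cerulean), 50 nM in PBS/1 mM DTT/0.02% Tween-20/0.1% BSA, preincubated 5 min RT with compound; 0.125 microM importin beta added, 45 min RT, CFP/YFP FRET ratio read.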
GLA inh pH 4.5 – alpha-galactosidase A (human) inhibition, pH 4.5. P06280. purified enzyme, 4-MU-alpha-Gal fluorescence, pH 4.5. activity change, negative = inhibition, % at 105 µM. 230,000 tested, under 10 active; inconclusive = small, poorly fitted or top-dose-only inhibition, or a rising curve; inactive = flat fitted curve, though single readings scatter; no compound was filed as active;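 also: 0% = full activity with enzyme and -100% = basal without enzyme; dose as in the result columns while the protocol names 77 µM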
Target sequence (P06280 whole entry, looked up): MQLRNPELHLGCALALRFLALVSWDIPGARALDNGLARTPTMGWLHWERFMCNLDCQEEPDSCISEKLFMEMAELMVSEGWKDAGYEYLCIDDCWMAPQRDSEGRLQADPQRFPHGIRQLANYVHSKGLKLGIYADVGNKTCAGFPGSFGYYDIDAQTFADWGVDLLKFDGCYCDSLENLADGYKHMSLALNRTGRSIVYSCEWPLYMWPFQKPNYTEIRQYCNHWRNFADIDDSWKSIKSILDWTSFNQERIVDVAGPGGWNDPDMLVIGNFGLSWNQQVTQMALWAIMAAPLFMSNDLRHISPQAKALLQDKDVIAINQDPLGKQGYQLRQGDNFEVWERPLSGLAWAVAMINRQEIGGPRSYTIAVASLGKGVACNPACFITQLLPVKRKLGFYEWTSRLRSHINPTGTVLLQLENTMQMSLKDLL
Rango dissoc inh – prevents RanGTP from dissociating the Rango-importin beta complex; O95149+P62826; Biochemical FRET Rango-importin beta, RanGTP-induced dissociation; Potency, µM (series often up to 46.1 µM), without a hit: at the highest dose activity change, negative = inhibition; 340,000 tested, 0.071% active; AID 540253; active means falling FRET ratio curve, often poorly fitted, with flat reads before Ran was added; inconclusive means other falling curves, or compound fluorescence or quenching; inactive means flat or rising ratio curve;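 also: potency is read from the fitted curve at half-maximal effect; % of control where 0% means no effect; nearly all actives have a fitted effect of over 45% in size; -100% = wells without RanGTP and RCC1; the record marks most hits as doubtful in a second field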
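Two FRET readings bracket the reaction: one 5 min after compound meets Rango–importin beta, another 45 min after RanGTP-RCC1 (0.6 uM Ran, 0.2 uM RCC1, 2 mM GTP) is added. Only the second defines inhibition.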
miR-21 FLuc – raises the signal of a miR-21 reporter | HeLa miR-21 FLuc reporter, luciferase, 48 h | 340,000 tested, under 10 active | AID 2288 | Potency, µM (titrated, usually from 38.3 µM), for inactives: at the top dose reporter change, positive = more light; active = well fitted rising curve with a large enough effect; inconclusive = small, poorly fitted or top-dose-only effect; inactive = no such curve, though single readings can be large or run the other way;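 also: % of control where 0% means no effect; miR-21 action dims this reporter so a rising signal means less miR-21 action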
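Compounds were titrated across several concentrations (up to approximately 40 uM) and incubated 48 hours with HeLa miR-21-FLuc reporter cells (miR-21 target sequence downstream of FLuc, endogenous miR-21). Readout was firefly luciferase luminescence after lytic detection reagent.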
* = called active by the depositor; ? = inconclusive; · = no result given; & = joins results of further samples.

Rango complex inh	GLA inh pH 4.5	Rango dissoc inh	miR-21 FLuc	molecule
1.4%	-4	11%	22%	Cc1onc(-c2ccccc2)c1C(=O)Nc1cc(C(F)(F)F)ccc1N1CCOCC1
-5.6%	-11	10%	-5%	O=C(CNC(=O)c1ccccc1)NC1(C(=O)NC2CCCC2)CCCCC1
0.9%	·	1%	-1%	COc1cc2[nH]c(C(=O)N3CC(C)OC(C)C3)cc2c(OC)c1OC (configuration not stated)
3.8%&1.5%	-2&3&12	-12%&20%	7%&2%	NC(N)=N/N=C/c1c(Cl)cccc1Cl
-2.0%	1	-15%	-2%	Cn1c(C(=O)N2CCN(c3ccc([N+](=O)[O-])cc3)CC2)cc2c(=O)[nH]c3ccccc3c21
-0.3%	2	-3%	-10%	Nn1c(SCC(=O)Nc2ccc3c(c2)OCCO3)nnc1-c1ccccn1
?	5	?	-7%	COc1ccc(NC(=O)CSc2nnc(-c3ccoc3C)n2CC2CCCO2)cc1 (configuration not stated)
?	·	?	-2%	COc1ccc(/C=C2\SC(=S)N(CCCC(=O)Nc3ccccc3C(=O)O)C2=O)cc1OC
1.8%	·	0%	22%	O=S(=O)(c1ccccc1F)N1CCC(c2nc3ccccc3[nH]2)CC1
-6.8%	7	12%	-2%	COc1cc(NC(=O)CCC(=O)OCCCC(F)(F)C(F)(F)F)nc(OC)n1
-0.3%	-6	-7%	-20%	Cc1ccc(CSC2=NCCN2S(=O)(=O)c2ccccc2)cc1
-0.4%	-4	-14%	-17%	O=C(Cc1ccc(S(=O)(=O)N2CCCC2)s1)Nc1nc2c(s1)CCCC2
-1.4%	·	-12%	·	O=C(c1cn(Cc2ccccc2)nc1-c1ccccc1)N1CCN(c2ccccn2)CC1
0.1%	0	0%	-2%	Cc1cc(C2CC(=O)Nc3ccccc3S2)c(C)s1 (configuration not stated)
-0.6%	·	-2%	0%	COc1ccc(N(C(=O)c2cccnc2)S(=O)(=O)c2ccc(Cl)cc2)cc1
-0.1%	·	-14%	2%	COc1ccc(S(=O)(=O)N2CCC(C(=O)NC3CC(C)(C)NC(C)(C)C3)CC2)cc1
-1.0%	5	-4%	0%	CCN1C(=O)C(O)(C2COC(C)(C)CC2=O)c2ccccc21 (configuration not stated)
0.9%	·	16%	2%	COc1ccc(C=O)cc1CSc1ncccc1C(=O)O
3.3%	·	-14%	·	O=C1ON=C(c2ccccc2[N+](=O)[O-])/C1=C/c1cccc([N+](=O)[O-])c1O
-0.4%	-3	-5%	-8%	S=C1NCCc2ccc(Cl)cc2C1c1ccccc1Cl (configuration not stated)
?	-10	?	1%	COc1cc(/C=C/C(=O)OCC(=O)Nc2cc(S(=O)(=O)N3CCCCC3)ccc2C)ccc1O
-1.9%	3	-4%	-16%	S=c1[nH]nc(COc2ccc(Cl)cc2)o1
-5.6%	·	9%	-3%	CSCCC(=O)N1CCN(CC(=O)N2CCCC2)CC1
0.4%	·	1%	1%	O=P(CCCO)(Cc1ccccc1)Cc1ccccc1
-0.2%	-19	1%	-7%	Cc1cc(-c2nc(C)c(C(=O)NNS(=O)(=O)c3ccc(Cl)cc3Cl)s2)no1
-1.8%	0	?	-1%	CCOC(=O)C1CCCN(C(=O)c2cc(S(=O)(=O)Nc3ccccc3OC)ccc2C)C1 (configuration not stated)
1.3%	·	6%	·	CCOc1cc(N2CCOCC2)c(OCC)cc1NC(=O)C(C)Oc1ccccc1 (configuration not stated)
-1.3%	-6	7%	0%	COC(=O)c1[nH]c2ccc(C)cc2c1NC(=O)CN1CCC(C)CC1
-0.3%	·	-12%	·	Cn1cnnc1SCC(=O)NCCC1=CCCCC1
3.7%	5	-5%	-23%	Fc1ccccc1CNc1ccc(Cl)c(Cl)c1
0.0%	·	-11%	3%	CC(=O)N1CCN(c2ccc(NC(=O)c3cc(Cl)ccc3Cl)cc2)CC1
-3.0%	-4	-9%	-1%	Cc1ccc(C(c2nnnn2Cc2cccs2)N2CCN(C(=O)c3ccco3)CC2)cc1 (configuration not stated)
-2.8%	-1	2%	-1%	COc1ccc(CNC(=O)C2CCCN(S(=O)(=O)c3cnc[nH]3)C2)cc1 (configuration not stated)
?	·	?	·	COc1cc2sc3cc(NCCCN4CCOCC4)ccc3c(=O)c2cc1OC
-0.1%	-6	-13%	0%	COC(=O)N(NC(=O)C(O)(C(C)C)C(C)C)c1ccccc1
2.6%	·	2%	·	CC(=O)Nc1ccc(S(=O)(=O)NC2CC(=O)N(c3ccc(C)c(C)c3)C2)cc1 (configuration not stated)
-1.8%	·	1%	·	CSCCC(NS(=O)(=O)c1ccccc1F)C(=O)NCCCn1nc(C)cc1C (configuration not stated)
?	·	-7%	7%	CC(=O)Nc1ccc(NC(=O)CC2SC(=O)N(CC(=O)c3ccccc3)C2=O)cc1 (configuration not stated)
0.7%	·	-14%	·	O=C(COc1coc(CN2CCN(c3ccccc3)CC2)cc1=O)Nc1ccccc1
1.1%	0	5%	8%	Cc1cc(/C=N/NC(=O)c2cccc([N+](=O)[O-])c2)c(C)n1-c1ccc(Cl)cc1Cl
-0.8%	·	-12%	0%	COc1ccccc1NC(=O)CSc1ccc2nnc(CCNC(=O)c3ccccc3)n2n1
-1.2%	·	0%	-17%	O=C(NCC1CCOCC1)c1ccc2nc(Cc3cccc(Cl)c3)oc2c1
-0.9%	·	-15%	·	CC1(C)CC[C@]2(C(=O)O)CC[C@]3(C)C(=CC[C@@H]4[C@@]5(C)CC[C@H](O[C@@H]6O[C@H](C(=O)O)[C@@H](O)[C@H](O[C@@H]7OC[C@H](O)[C@H](O)[C@H]7O)[C@H]6O)C(C)(C)[C@@H]5CC[C@]43C)[C@@H]2C1
0.1%	1	0%	-25%	Cc1cc(C)c2c(N)c(C(=O)NC3CC3)sc2n1
?	-2	-4%	2%	CN(C)/N=C/c1ccc(P(c2ccc(/C=N/N(C)C)o2)c2ccc(/C=N/N(C)C)o2)o1
0.8%	3	12%	-54%	COc1ccc(-n2cnc3sc(-c4ccccc4)cc3c2=O)cc1
0.4%	-7	2%	-11%	CCC1=NN(C(=O)CCc2ccccc2O)C(O)(C(F)(F)F)C1 (configuration not stated)
0.2%	·	-2%	·	CCN(CC(=O)Nc1c(F)cccc1F)C(=O)c1ccc(-c2ccc(C(C)=O)cc2)o1
0.9%	·	-7%	·	Cc1cccc([C@H](NC(=O)OC(C)(C)C)C(=O)OC(C)(C)C)c1
-3.1%	·	3%	2%	CC1CCCC(NC(=O)CN2C(=O)c3cccnc3Oc3ccc(Cl)cc32)C1C (configuration not stated)

Reformatted bar-delimited: 2 of the compounds above.
SMILES | Rango complex inh | GLA inh pH 4.5 | Rango dissoc inh | miR-21 FLuc
CSCCC(NS(=O)(=O)c1ccccc1F)C(=O)NCCCn1nc(C)cc1C (configuration not stated) | -1.8% | · | 1% | ·
CC1(C)CC[C@]2(C(=O)O)CC[C@]3(C)C(=CC[C@@H]4[C@@]5(C)CC[C@H](O[C@@H]6O[C@H](C(=O)O)[C@@H](O)[C@H](O[C@@H]7OC[C@H](O)[C@H](O)[C@H]7O)[C@H]6O)C(C)(C)[C@@H]5CC[C@]43C)[C@@H]2C1 | -0.9% | · | -15% | ·

(next part)
Rango complex inh	GLA inh pH 4.5	Rango dissoc inh	miR-21 FLuc	molecule
-2.8%	3	-1%	-6%	COc1cc(C(=O)NC2=NCCS2)ccc1OCc1c(C)noc1C
-0.9%	·	-1%	-4%	Clc1cccc(Nc2nc(N3CCOCC3)nc(N3CCOCC3)n2)c1
?	2	?	-3%	CCN1CCc2c(sc(N)c2C(N)=O)C1
-3.2%	-4	-2%	1%	COc1ccccc1NC(=O)Cn1c(O)c(N=NC(=O)c2ccccc2O)c2ccccc21
·	7	·	-3%	CCCOC(=O)c1ccc(NC(=O)c2cn(CC)c3nc(C)ccc3c2=O)cc1
-9.6%	3	3%	-9%	CCOc1ccc(N(CC(=O)NCCSc2ccccn2)S(C)(=O)=O)cc1
3.3%	-1	-1%	-7%	O=c1ccc(/C=C/c2ccccc2)nn1Cc1ccccc1
5.2%	·	8%	0%	CC1CC(=O)N(CC(=O)Nc2ccc(F)cc2F)c2ccccc2S1(=O)=O (configuration not stated)
-1.0%	-15	-1%	16%	COc1cccc(-n2c(SCC(=O)NC3CCCCC3)nc3n[nH]c(C)c3c2=N)c1
-1.4%	3	7%	20%	CC(=O)c1ccc(Oc2cc(C)nc(-n3nc(C)cc3C)n2)cc1
?	-7	52%	-9%	CC(C)CC(NC(=O)C1CCC(C)CC1)C(=O)NCc1ccccn1 (configuration not stated)
4.0%	6	0%	-2%	Cn1c(=O)c2c3c(sc2n2cnnc12)CCC3
-1.3%	·	12%	-6%	c1cc2c3c(cccc3c1)NC(c1ccc3c(c1)OCO3)N2
-2.1%	4	18%	1%	COc1ccc(NS(=O)(=O)c2cc(OCC(N)=O)c(C)cc2Cl)cc1
-4.5%	-33	5%	-18%	COc1ccc(OCC(=O)Nc2ccc(NC(=O)c3cccs3)c(OC)c2)cc1
1.8%	-1	6%	?	Cc1oc2c(c1C(=O)NCc1cccnc1)C(=O)c1ccccc1C2=O
?	-12	?	0%	CCC(C)Sc1cc(C)c(C#N)c2nc3ccccc3n12 (configuration not stated)
-0.5%	-7	2%	-6%	O=C(CSc1nnc(-c2ccccc2)c(-c2ccccc2)n1)N1CCOCC1
?	·	-7%	·	CC(C)(C)OC(=O)Nc1ccc([C@@H](NC(=O)OC(C)(C)C)C(=O)OC(C)(C)C)cc1
-0.2%	-5	2%	?	O=C1C(N2CCOCC2)=C(n2nnc3ccccc32)C(=O)c2ccccc21
-3.9%	5	10%	-19%	O=C(Nc1nccs1)c1ccc(-c2ccc(Cl)cc2)o1
0.8%	5	-9%	-1%	Cn1c(SCC(=O)Nc2sccc2C#N)nnc1-c1ccccc1
-1.7%	-1	-3%	-3%	CCc1ccc(NC(=S)N(CCCN2CCOCC2)Cc2ccco2)cc1
0.9%	1	-24%	-18%	CCOC(=O)CCc1c(C)c2ccc(OCC(=O)OC(C)C)cc2oc1=O
-2.0%	10	-13%	-15%	CCOC(=O)C1CCN(c2ncnc3c2[nH]c2cccc(OC)c23)CC1
-0.1%	·	-11%	·	O=C(Cc1ccccn1)c1ccccc1
1.9%	2	14%	-22%	COc1ccc(C(=O)Nc2nc(N)n(-c3ccccc3)n2)cc1
4.0%	·	0%	-1%	O=C(Nc1ccc(Br)cc1)c1cccc2c1C(=O)N(C1CCCCC1)C2
-1.9%	·	-27%	-1%	COc1ccc(OC)c(C2C(C(=O)c3cccs3)=C(O)C(=O)N2CCN2CCOCC2)c1 (configuration not stated)
?	·	?	0%	COc1ccc(OC)c(/C=C2\Oc3cc(OCC(=O)N4CCC[C@H]4C(=O)O)ccc3C2=O)c1
-0.4%	-1	-9%	3%	O=C(Nc1cccc(Cl)c1)c1ccc(F)c(S(=O)(=O)N2CCN(c3ccccn3)CC2)c1
2.5%	1	10%	2%	Cc1cc(C)cc(NC(=S)Nc2ccc3cn[nH]c3c2)c1
1.9%	2	0%	-13%	COc1ccc(-c2nc3ccccc3c(=O)n2CCOc2c(C)cccc2C)cc1
0.7%	0	6%	1%	COc1ccc2[nH]cc(CCNS(=O)(=O)c3ccc(F)cc3)c2c1
4.2%	-7	0%	-2%	Cc1cc([N+](=O)[O-])ccc1NC(=S)NC(=O)Cc1ccccc1
0.6%	8	-12%	3%	CC(OC(=O)c1ccccc1OCc1ccc(Cl)cc1)C(N)=O (configuration not stated)
?	?	?	-1%	CCOC(=O)c1cc2c(=O)n3ccccc3nc2n(CCCOC)c1=NC(=O)C(C)(C)C
-4.3%	-5	-4%	-8%	COc1ccc(-c2nc3ccccc3c(=O)n2NC(=O)Cc2ccccc2)cc1
0.6%	·	2%	-1%	O=c1oc2ccccc2c2c1C(O)CO2 (configuration not stated)

Laid out differently: entries from further up
SMILES: COc1ccc(OC)c(/C=C2\Oc3cc(OCC(=O)N4CCC[C@H]4C(=O)O)ccc3C2=O)c1
  Rango complex inh = ?	GLA inh pH 4.5 = ·	Rango dissoc inh = ?	miR-21 FLuc = 0%
SMILES: O=C(Nc1cccc(Cl)c1)c1ccc(F)c(S(=O)(=O)N2CCN(c3ccccn3)CC2)c1
  Rango complex inh = -0.4%	GLA inh pH 4.5 = -1	Rango dissoc inh = -9%	miR-21 FLuc = 3%
SMILES: Cc1cc(C)cc(NC(=S)Nc2ccc3cn[nH]c3c2)c1
  Rango complex inh = 2.5%	GLA inh pH 4.5 = 1	Rango dissoc inh = 10%	miR-21 FLuc = 2%

Only part of the results is shown; the hit share may differ from the screen's.
